Compound activity as filed in PubChem.
TRPML1 inh = human mucolipin-1 channel inhibition. Q9GZU1. TRPML1-inducible cells, Ca2+ dye fluorescence, FDSS; hits give low values; inhibition of EC80 agonist-evoked calcium signal. activity change, negative = inhibition, % (concentration not given with the values). 390,000 tested, 0.02% active. AID 624415; in the data active means activity change below about -50%; inconclusive means about -30% to -50%; inactive means above about -30%;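 note: stimulus is agonist 54-4 at its EC80 concentration; % is set by controls: 0 for no effect and ±100 for the full control effect; compound concentration not given in the record; the text of the record puts the active cut at -80%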
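TRPML1-DL cells, Tet-induced overnight (~16 h, 37 °C) at 1,500 cells/well, were loaded with Ca8 no-wash dye plus quencher for 45-90 min at room temperature. Compounds were pinned during FDSS kinetic reading; agonist 54-4 at EC80 (4 uM final) then added.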
TRPML1 agonist = human mucolipin-1 channel agonism; activation, % (test concentration not listed); TRPML1-expressing cells, Ca2+ dye fluorescence, FDSS; host cell line not named in the record; reference of the full effect not given here; Q9GZU1; 410,000 tested, 0.12% active; in the data active = activation above about 50%; inconclusive = about 30% to 50%; inactive = below about 30%; note: 0% is about no effect; the text of the record puts the active cut at 80%
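Tet-induced TRPML1-DL cells, 1,500 per well, cultured overnight, were loaded with a no-wash Ca2+ dye for 45–90 min. Calcium fluorescence was recorded on the FDSS for 110 s after compound addition, before the EC80 agonist (4 uM 54-4) was added.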
PINK1 modulator = modulators of PINK1 expression | PINK1 immunofluorescence, high-content cytometry, 24 h | Potency, µM (top dose mostly 76.6 µM), for the others: at the top dose activation (PINK1 increase), actives largely listed as activators | 410,000 tested, 0.2% active; active = well fitted activation curve with a large enough effect; inconclusive = small, poorly fitted or top-dose-only effect; inactive = flat fitted curve, though single readings scatter; cell line not stated here;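 note: potency is the fitted concentration of half-maximal effect; % of control where 0% means no effect; nearly all actives have a fitted effect of over 65% in size; a mitochondrial uncoupler was the plate control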
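Stable cell line, 250 cells/well, 12 h attachment; compounds pinned at 5 concentrations, 24 h; CCCP control. Fixed with nuclear dye, primary antibodies 12 h at 10 degrees C, secondary plus cell stain; laser-scanning cytometer read.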
D2 ag = human D2 receptor agonism in beta-arrestin assay | P14416 | DiscoveRx PathHunter D2 beta-arrestin, luminescence, 90 min; 100% = 57 uM dopamine signal | activation, % (concentration not given with the values) | 360,000 tested, 0.084% active | AID 624465; in the data active = activation above about 40%; inconclusive = about 15% to 40%; inactive = below about 15%; note: compound concentration not given in the record; the text of the record calls up to 30% inactive
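DiscoveRx PathHunter D2 beta-arrestin cells (2,100/well) attached overnight, then compound-stimulated 90 min at 37 C in HBSS/10 mM HEPES/0.1% Tween-20 buffer; beta-galactosidase complementation read by luminescence after 1 h at ambient temperature. Dopamine 57 uM final (EC100) as control.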
Six1-Eya2 inh = blocks human Six1 binding to Eya2; 360,000 tested, 0.56% active; activity change, % (no concentration beside the values); AlphaScreen GST-Six1/His-Eya2 binding, biochemical; hits give low values; control for the full effect not named in the record; AID 651725; Q15475+O00167; in the data active = activity change below about -65%; inconclusive = about -30% to -65%; inactive = above about -30%; note: % is set by controls: 0 for no effect and ±100 for the full control effect; compound concentration not given in the record
Target sequence (O00167 whole entry, looked up): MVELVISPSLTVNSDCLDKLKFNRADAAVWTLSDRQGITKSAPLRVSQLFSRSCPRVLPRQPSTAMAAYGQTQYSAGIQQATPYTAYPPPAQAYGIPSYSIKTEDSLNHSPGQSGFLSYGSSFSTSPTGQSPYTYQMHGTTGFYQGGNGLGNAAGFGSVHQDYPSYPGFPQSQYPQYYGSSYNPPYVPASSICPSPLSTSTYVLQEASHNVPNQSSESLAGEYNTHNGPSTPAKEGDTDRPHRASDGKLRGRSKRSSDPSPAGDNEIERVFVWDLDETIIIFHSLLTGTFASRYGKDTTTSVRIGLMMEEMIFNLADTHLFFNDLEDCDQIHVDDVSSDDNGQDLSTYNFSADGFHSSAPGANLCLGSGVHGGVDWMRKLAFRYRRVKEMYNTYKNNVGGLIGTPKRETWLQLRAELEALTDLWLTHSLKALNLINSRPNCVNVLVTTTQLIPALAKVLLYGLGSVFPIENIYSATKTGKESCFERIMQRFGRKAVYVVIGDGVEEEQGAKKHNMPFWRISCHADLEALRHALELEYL
Target sequence (Q15475 whole entry, looked up): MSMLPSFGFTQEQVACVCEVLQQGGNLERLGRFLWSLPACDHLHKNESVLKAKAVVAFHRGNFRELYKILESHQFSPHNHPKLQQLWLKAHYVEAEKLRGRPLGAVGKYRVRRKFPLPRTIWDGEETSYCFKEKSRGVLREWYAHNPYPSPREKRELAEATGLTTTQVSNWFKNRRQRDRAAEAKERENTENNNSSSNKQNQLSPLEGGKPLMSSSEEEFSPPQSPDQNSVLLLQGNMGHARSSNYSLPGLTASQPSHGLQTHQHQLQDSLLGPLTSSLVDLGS
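AlphaScreen luminescence read after one hour at 37 °C in darkness. Pin-transferred compounds met GST-Six1 and His-Eya2 protein (5X stock 250 nM/500 nM) plus glutathione donor and Ni-chelate acceptor beads (5X, 50 ug/mL).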
D2 PAM = potentiates the human D2 dopamine receptor allosterically | DiscoveRx D2 beta-arrestin cells, luminescence, 90 min; 100% = 57 uM dopamine signal | potentiation, % (no concentration beside the values) | 360,000 tested, 0.23% active | AID 624464; active = potentiation of 50% or more; inconclusive = 30% to 50%; inactive = 30% or less;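 note: compound concentration not given in the record; tested on top of an EC20 dose of dopamine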
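PathHunter D2 cells, attached overnight at 37 deg C, received compound in DMSO plus dopamine at EC20 (50 nM final) for 90 min at 37 deg C. Beta-arrestin recruitment was read as luminescence after 1 h with detection reagent at ambient temperature.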
* hit, by the source's call; ? = inconclusive; · = not tested or not shown; & = joins results of further samples; [ ] = dose if it differs, or a comment. Hits appear at their usual frequency, and some 1% of all compounds hit somewhere here.

SMILES	TRPML1 inh	TRPML1 agonist	PINK1 modulator	D2 ag	Six1-Eya2 inh	D2 PAM
COc1ccc(N=c2oc3c(OC)cccc3cc2C(=O)NCc2ccco2)c(OC)c1	4	-1.5	4.4%	-0.2	0	3
NS(=O)(=O)c1ccc(CCNC(=O)CSc2nc3ccccc3c3nc(CCN4CCCCC4)nn23)cc1	9	-0.2	-1.5%	0.8	-7	-11
Cn1cnc(S(=O)(=O)N2CCN(C(c3ccc(F)cc3)c3ccc(F)cc3)CC2)c1	8	-1.1	1.4%	1.5	-1	-2
Cc1ccccc1C(=O)NCCOc1ccccc1Cl	5	-0.6	-0.1%	-0.2	6	0
CC(C)(C)c1ccc(C(=O)NCCC(=O)Nc2ccc3c(c2)OCCO3)cc1	28	0.9	0.9%	-0.9	-9	17
Cc1ccc2c(c1)N(CC(=O)Nc1c(C)cccc1C)C(=O)c1cccnc1O2	-2	-0.9	0.3%	-4.9	0	-5
COc1cccc(NC(=O)CCc2nc3c(C)nn(-c4ccc(C)cc4)c3n(C)c2=O)c1	-4	-0.1	-0.3%	·	·	·
c1ccc(CN2CCCC3(CCCN(Cc4nc(CC5CC5)no4)C3)C2)cc1 (stereo unspecified)	12	1.2	0.4%	-8.8	-2	-6
CC1CC(C)CN(S(=O)(=O)c2ccc3c(c2)CCN3C(=O)C2CC2)C1 (stereo unspecified)	9	0.7	3.3%	4.4	-2	-5
COc1ccc2c(c1)c1c(c(=O)n(-c3ccccc3C)c(=O)n1CC(=O)Nc1c(C)cccc1C)n2C	36	0.1	1.0%	·	·	·
Cc1cc(Nc2ccc(F)cc2F)n2nc(C)nc2n1	17	0.1	1.5%	1.2	1	-1
O=C(CC1C(=O)NCCN1Cc1ccccc1C(F)(F)F)NC1CCC1 (stereo unspecified)	-16	0.0	-1.4%	-5.3	17	2
O=C(COC(=O)[C@H](Cc1ccccc1)NC(=O)c1cccs1)NC1CCCCC1	9	6.3	0.6%	-3.0	1	-19
COc1ccc(-c2nc(NCCN(C)C)nc3ccsc23)c(C)c1	·	-0.5	2.1%	2.8	7	-10
CCC(=O)Oc1oc(-c2ccccc2)nc1C=Nc1ccccc1OC	14	0.7	-0.3%	0.0	3	-5
CCOC(=O)C1CCCN(C(=O)C2(c3ccc(Cl)cc3)CCCC2)CC1 (stereo unspecified)	20	-0.1	2.9%	-3.8	3	-13
COc1ccc(-n2ncc3c(Nc4cccc(C)c4)ncnc32)cc1	-2	-0.2	-0.8%[38.3 µM]	-2.9	0	6
N#C/C(=C\c1ccco1)Sc1nc2ccccc2s1	14	1.0	4.8%	-2.4	2	-5
CCc1ccc(NC(=O)Cn2c(-c3cncs3)nc3ccccc32)cc1	-3	2.0	-0.8%	·	·	·
CC1(C(=O)Nc2ccc3[nH]ncc3c2)CCN1C(=O)Cc1ccc(-c2ccccc2)cc1 (stereo unspecified)	·	0.7	-0.2%	14	-7	-2
COCCn1c(Br)nc2c1c(=O)n(C)c(=O)n2C	-20	0.5	-1.3%	5.4	-23	0
CC1(C)C(=O)OC(c2ccccc2)C2(CCCC2)C1=O (stereo unspecified)	-8	-0.2	0.2%	-1.1	4	7
O=C(Nc1ccc(F)cc1)c1cc2c(s1)CCCC2	9	0.5	1.8%	1.1	6	-16
C=C[C@H](CC(C)C)N(Cc1ccccc1)S(=O)(=O)N(Cc1ccccc1)[C@@H](C=C)CC(C)C	9	0.7&0.5	1.9%	-2.6	3	-3
Cc1ccc(NC(=O)CC(NCCN2CCOCC2)C(=O)O)cc1Cl (stereo unspecified)	-6	1.1	-0.3%	-0.7	-2	-11

Ordered by the number under PINK1 modulator (lowest first): some entries from above.
| mol | PINK1 modulator |
| --- | --- |
| CCC(=O)Oc1oc(-c2ccccc2)nc1C=Nc1ccccc1OC | -0.3% |
| O=C(COC(=O)[C@H](Cc1ccccc1)NC(=O)c1cccs1)NC1CCCCC1 | 0.6% |
| CC1CC(C)CN(S(=O)(=O)c2ccc3c(c2)CCN3C(=O)C2CC2)C1 (stereo unspecified) | 3.3% |

(cont.)
SMILES	TRPML1 inh	TRPML1 agonist	PINK1 modulator	D2 ag	Six1-Eya2 inh	D2 PAM
CC1CC(C(F)F)n2nc(C(=O)O)cc2N1 (stereo unspecified)	-6	0.4	8.7%[38.3 µM]	0.4	6	3
CCC(C)NS(=O)(=O)c1ccc(OCC(=O)Nc2ccc(F)cc2F)cc1 (stereo unspecified)	10	1.4	-1.2%	6.2	-2	-5
COc1ccc(Br)cc1C(=O)Nc1ccc2oc(-c3cccnc3)nc2c1	-19	-1.0	1.3%	·	·	·
COc1ccc2nc(SCC(=O)NC(C)c3ccccc3)[nH]c2c1 (stereo unspecified)	-13	-0.6	1.6%	-0.4	-3	6
COc1ccccc1N1CCN(C(=O)c2ccc(CSc3ccccc3)cc2)CC1	0	2.1	-0.6%	-0.1	-7	-9
C/C(N)=C(/C#N)C(=O)CSc1nnc(COc2cc(C)ccc2C)o1	5	0.2	·	0.8	5	-7
O=C(O)CCSCCC(=O)O	13	1.1	-0.1%	-2.7	-6	1
CCCn1cc(CN2CCC(Oc3ccc(C(=O)N4CCCC4)cc3)CC2)c(C)n1	10	-0.4	0.8%	1.8	0	-4
COc1ccc(-c2cc(C(=O)Nc3cccc(S(=O)(=O)NCc4ccco4)c3)c3ccccc3n2)cc1OC	7	-0.1	0.6%	6.7	1	22
CN(C)C(=O)CCc1ccc2c3c([nH]c2c1)[C@]1(CCc2ccccc2)[C@@H](C(=O)N2CCCCC2)C[C@H](CC(=O)NCc2cccc(C(F)(F)F)c2)C(=O)N1CC3	18	-0.5	1.8%	-1.6	4	3
CC(C)C[C@H](NC(=O)c1[nH]cnc1C(=O)N[C@@H](C)c1ccccc1)C(=O)OC(C)(C)C	-1	2.1	-0.3%	-3.4	-8	-8
Cc1ccc(N2C(=O)[C@@H]3C(C(=O)C(c4ccccc4)c4ccccc4)=NN[C@@H]3C2=O)cc1	3	-0.4	0.6%	0.2	-2	-8
COCCNC(=O)NC(=O)CN1CCN(C(c2ccccc2)c2ccccc2)CC1	27	0.8	0.8%	-0.5	-1	-9
CC1=NN(C(=O)Cn2nc([N+](=O)[O-])c(Br)c2C)C(O)(C(F)(F)F)C1 (stereo unspecified)	-3	1.4	0.2%	1.6	9	-2
Cc1cc(C)n2ncc(C(=O)NCc3ccc(Cl)cc3)c2n1	18	-0.6	-1.9%	-5.2	2	-7
CCOC(=O)C1=C(N)Oc2cc(O)ccc2C1c1ccc(C)cc1 (stereo unspecified)	-12	1.4	-1.6%	2.3	-23	-7
CC(C)Oc1ccc(CCc2n[nH]c(=S)n2Cc2ccccc2)cc1	0	2.2	2.9%[38.3 µM]	2.5	-4	-6
Cc1nnc(SCC(=O)NC2CCCc3c2cnn3-c2ccc(F)cc2F)o1 (stereo unspecified)	20	0.6	-0.9%	1.0	1	2
CCOC(=O)C1CCCCN1Cc1cccc(C(F)(F)F)c1 (stereo unspecified)	17	1.4	-4.4%[38.3 µM]	-1.0	8	4
COc1ccc(Cl)cc1S(=O)(=O)N1CCC(C(=O)NCc2ccccn2)CC1	9	-0.5	2.1%	-0.5	-11	-1
O=C(CC1C(=O)NCCN1Cc1ccccc1)NCCCOc1cccnc1 (stereo unspecified)	24	1.3	3.5%	-4.3	-20	-8
CC1Nc2ncnc(N3CCN(c4ccccc4)CC3)c2N(Cc2ccc(Cl)cc2)C1=O (stereo unspecified)	17	0.0	1.7%	-14	-7	-45
CCOc1ccc(C(=O)Nc2ccc3nc(N4CCN(CC)CC4)cc(C)c3c2)cc1	33	0.1	?	0.1	1	-11
FC(F)c1nc2nc(Cl)c(Cl)nc2[nH]1	10	0.3	0.6%	-1.8	-3	3
O=C1OCC/C1=C\c1ccccc1O	-3	0.9	0.7%	0.4	2	-4

The list goes on.
SMILES	TRPML1 inh	TRPML1 agonist	PINK1 modulator	D2 ag	Six1-Eya2 inh	D2 PAM
CCOC(=O)c1cccc(NC(=O)c2ccc3c(Cl)c4c(nc3c2)CCC4)c1	15	-0.7	2.2%	·	·	·
C=CCc1c(C)[nH]c(=O)[nH]c1=O	14	0.6	2.5%	0.8	12	-4
CCN1/C(=C2\C(=O)N(C)C(=S)N2C)C=Cc2ccccc21	-16	3.8	-0.6%	-2.9	?	-12
CC(=O)Nc1ccc(NC(=O)CSc2nc3c(=O)n(C)c(=O)n(C)c3n2C)cc1	-7	0.7	1.7%	2.5	-8	-15
Cc1cc(=O)oc2cc(OCC(=O)Nc3c(Cl)cccc3C(F)(F)F)ccc12	9	0.0	4.0%	-0.1	-1	6
Cc1c(NC(=O)c2cc(-c3ccccc3O)on2)c(=O)n(-c2ccccc2)n1C	-17&4	-0.2&-0.4	?	-2.2	10	-5
O=C(CCCn1c2ccccc2c(=O)c2ccccc21)Nc1ccc(F)cc1Cl	27	2.0	5.8%	·	·	·
Cc1cc(C)cc(NC(=O)N2C3CCCC2CC(NC(=O)C2CC2)C3)c1 (stereo unspecified)	-21	-0.2	-2.2%	-3.7	8	-5
COc1ccccc1CCc1nnc(CCC(=O)NCCC2CCCCO2)o1 (stereo unspecified)	-3	-0.5	0.0%	-1.5	-1	0
O=C(CCc1n[nH]c(=O)[nH]c1=O)N1CCOCC1	11	-0.7	0.0%	-3.6	4	-6
CC1CN(C(=S)NC2CCCC2)CC(C)O1 (stereo unspecified)	10	0.8	-1.2%	3.8	-2	-17
O=C(NN=Cc1ccccc1Cl)c1ccc([N+](=O)[O-])cc1	6	-0.3	9.5%	0.1	8	-11
Cc1ccccc1CSCC(=O)NCc1ccco1	-8	0.2	-0.7%	1.2	-11	-3
CC1CCC(C(C)C)C(NC(=O)c2ccncc2)C1 (stereo unspecified)	·	-0.8	0.3%	2.5	3	-1
COc1ccc(/[N+]([O-])=C/c2ccoc2)cc1	-8	-0.7	-0.6%	0.1	-2	-3
Cc1cc(NC(=O)CN2C(=O)S/C(=C\c3ccccc3)C2=O)no1	3	-0.3	5.5%	-3.8	0	17
CC(/C=N/n1c(-c2ccccn2)n[nH]c1=S)=C\c1ccccc1	59	1.0	1.7%	0.1	?	-2

Four entries from above, comma-delimited:
canonical_smiles,TRPML1 inh,TRPML1 agonist,PINK1 modulator,D2 ag,Six1-Eya2 inh,D2 PAM
CCc1ccc(NC(=O)Cn2c(-c3cncs3)nc3ccccc32)cc1,-3,2.0,-0.8%,·,·,·
CC1(C(=O)Nc2ccc3[nH]ncc3c2)CCN1C(=O)Cc1ccc(-c2ccccc2)cc1 (stereo unspecified),·,0.7,-0.2%,14,-7,-2
COCCn1c(Br)nc2c1c(=O)n(C)c(=O)n2C,-20,0.5,-1.3%,5.4,-23,0
CC1(C)C(=O)OC(c2ccccc2)C2(CCCC2)C1=O (stereo unspecified),-8,-0.2,0.2%,-1.1,4,7
